Screening results as filed in PubChem BioAssay.
KCNQ2 block: KCNQ2 potassium channel inhibitors, primary screen, cell-based, CHO-K1, FluxOR thallium flux, B-score (AID 2156) | O88943 | B-score at 10 µM | 310,000 tested, 1.1% active | 20 min; active compounds read low; only compounds with negative scores are shown here; some inactives read as strong as hits;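 active = fluorescence ratio B-score at most minus 3 library SDs, with starting brightness B-score within 2 library SDs, cut at about -5.5 in these data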
Target sequence (O88943 whole entry, looked up): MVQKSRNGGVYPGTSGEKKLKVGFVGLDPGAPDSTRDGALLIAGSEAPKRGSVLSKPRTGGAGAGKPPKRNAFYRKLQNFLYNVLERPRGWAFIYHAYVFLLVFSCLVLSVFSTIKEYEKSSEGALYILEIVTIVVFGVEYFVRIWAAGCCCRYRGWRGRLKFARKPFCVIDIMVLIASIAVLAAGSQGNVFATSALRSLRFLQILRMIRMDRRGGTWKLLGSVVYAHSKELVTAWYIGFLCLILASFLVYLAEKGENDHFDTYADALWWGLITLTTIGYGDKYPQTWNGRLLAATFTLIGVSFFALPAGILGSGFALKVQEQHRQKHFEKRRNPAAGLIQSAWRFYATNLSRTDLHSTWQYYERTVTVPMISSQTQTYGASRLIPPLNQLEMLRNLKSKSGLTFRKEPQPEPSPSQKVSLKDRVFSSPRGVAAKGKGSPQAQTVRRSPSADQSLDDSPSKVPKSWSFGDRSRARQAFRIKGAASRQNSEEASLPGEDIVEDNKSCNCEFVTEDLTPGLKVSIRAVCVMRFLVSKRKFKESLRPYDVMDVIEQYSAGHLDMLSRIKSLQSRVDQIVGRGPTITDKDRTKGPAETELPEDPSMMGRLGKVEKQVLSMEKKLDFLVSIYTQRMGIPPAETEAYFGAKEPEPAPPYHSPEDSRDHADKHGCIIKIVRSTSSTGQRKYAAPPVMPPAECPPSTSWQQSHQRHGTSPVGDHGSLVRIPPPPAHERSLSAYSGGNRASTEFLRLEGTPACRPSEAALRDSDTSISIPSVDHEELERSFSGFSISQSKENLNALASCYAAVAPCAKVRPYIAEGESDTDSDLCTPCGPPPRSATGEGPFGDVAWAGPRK
KCNQ2 block baseline: second read-out of KCNQ2 block, no call of its own (marks repeat the call); B-score; measured here: initial fluorescence intensity artifact check;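 brightness before thallium and not channel activity; 0 = typical well and far values either way flag optical interference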
* hit, by the source's call; i = inactive. Not all compounds are listed, so the mix of outcomes need not match the whole.

Every second line gives: KCNQ2 block	KCNQ2 block baseline
CCc1ccc(C(C)NC(=O)c2cc(C)oc2C)cc1 (configuration not stated)
    i	0.57
O=C(OCc1cccc(F)c1)c1ccc2c(c1)-c1ccccc1C2=O
    i	-0.01
Cc1nnc(SCC(=O)N2CC(=O)Nc3ccccc32)n1C
    i	-0.49
CCOC(=O)c1[nH]c(C)c(C(=O)Nc2cc(Cl)ccc2C)c1C
    i	1.2
CCOC(=O)C(C)n1cnc2c(nnn2-c2ccc(C)cc2)c1=O (configuration not stated)
    i	0.06
COC(=O)C1=C2c3[nH]c4ccccc4c3CCN2C(=O)CC1
    i	0.51
COC(=O)N/N=C/c1cn(Cc2c(Cl)cccc2Cl)c2ccccc12
    i	0.82
O=C(N/N=C/c1ccc(Cl)cc1)c1ccc2c(c1)OCO2
    i	-0.97
O=C(Nc1nc(-c2ccc(Cl)cc2Cl)cs1)c1ccc(OCC2CCCO2)cc1 (configuration not stated)
    i	-2.49
O=c1cc(CSc2ccc(Cl)cc2)nc(N2CCOCC2)[nH]1
    i	1.23
Cc1ccccc1C(=O)NC(=S)N(C)CCc1ccccn1
    i	0.97
O=C(N/N=C/c1ccccn1)c1cc(C2CC2)nc2ccccc12
    i	0.87
COc1ccc(Nc2ncccc2C(=O)Nc2ccccc2)cc1
    i	0.53
COc1cccc(/C=N/Nc2nccnc2Cl)c1O
    i	-1.58
CCCn1c(CN(Cc2ccccc2)Cc2ccccc2)nc2c1c(=O)n(C)c(=O)n2C
    i	-1.68
CCCCc1cc(=O)oc2cc(C)c(CN3CCCC3)c(O)c12
    i	-0.29
O=C(NCCN1CCN(c2ccccc2)CC1)Nc1cccc(Br)c1
    i	1.66
COc1ccc(CNC(=O)C2CCCN(S(=O)(=O)N3CCC(C)CC3)C2)c(OC)c1 (configuration not stated)
    i	-1.11
Cc1ccc(NCC(=O)Nc2ccc(Br)cc2)cc1C
    i	-1.34
COc1ccc(C(CNS(=O)(=O)c2ccc(F)cc2)N2CCN(C)CC2)cc1 (configuration not stated)
    i	-0.36
CCOC(=O)c1c(-c2ccc(F)cc2)csc1NC(=O)CCN1CCOCC1
    i	-1.11
COc1ccc(Br)cc1/C=C1\Oc2ccccc2NC1=O
    i	-0.33
COc1ccc(NC(=O)CSc2ccc(-c3cccnc3)nn2)cc1
    i	-0.34
CSc1ncc(F)c(N(CCO)CCO)n1
    i	-0.55
Cc1cccc(NCc2ccc(Br)cc2)n1
    i	-1.11
CCn1c(NCc2ccco2)nc2ccccc21
    i	0.19
Cc1cccc(OCCCCc2c(C)n[nH]c2C)c1C
    i	-0.46
CN(CC(=O)Nc1cccc(C(F)(F)F)c1)Cc1ccccc1
    i	-0.58
Cc1cc(=O)oc(C)c1C(=O)Nc1cccc2nonc12
    i	-1.07
COC(=O)c1ccccc1NC(=O)NC1CCC(C)CC1 (configuration not stated)
    i	2.05

(cont.)
Every second line gives: KCNQ2 block	KCNQ2 block baseline
Cc1cccc(N(C)C(=O)CN2C(=O)COc3ccc(S(=O)(=O)N4CCCCCC4)cc32)c1
    i	0.17
O=C(CCOc1ccccc1)Nc1ccccc1
    i	0.34
CC1CCC(NC(=O)C2(C)CCC(=O)N2Cc2cccnc2)CC1 (configuration not stated)
    i	5.9
CC(NCC(O)COCCC12CC3CC(CC(C3)C1)C2)c1ccccc1 (configuration not stated)
    -7.7*	1.04*
CC1CCCN(C(=O)CSc2nnc(-c3ccco3)n2C)C1 (configuration not stated)
    i	1.65
CC(=O)N(CCC(Cc1ccccc1)c1ccco1)Cc1ccco1 (configuration not stated)
    -6.04*	-1.5*
Cc1ccc(C(=O)NC(=S)Nc2ccc(N3CCN(C(=O)c4ccco4)CC3)cc2)cc1
    i	0.84
Cc1ccc(-c2cc(C(=O)N3CC(C)OC(C)C3)c3ccccc3n2)o1 (configuration not stated)
    -10.6*	-0.02*
O=C(COc1ccc(Cl)cc1Cl)Nc1c(-c2cccs2)nc2ccccn12
    i	-1.11
COc1cccc(CN(Cc2cccnc2)S(=O)(=O)c2ccc(-n3cnnn3)c(C)c2)c1
    i	2.33
Cc1cc(C)cc(NC(=O)N2C3CCCC2CC(NC(=O)C2CC2)C3)c1 (configuration not stated)
    i	-0.01
COCC(=O)N1CCc2ccc(NC(=O)c3ccccc3Cl)cc2C1
    i	2.46
C=CCOc1ccc(CN(C)CC(=O)Nc2ccccc2[N+](=O)[O-])cc1
    i	0.02
COc1ccc(CNC(=S)Nc2ccc(-c3ccccc3)cc2)cc1
    i	0.24
Cc1ccc(S(=O)(=O)N(C)c2ccc(C(=O)N3CCN(Cc4ccc5c(c4)OCO5)CC3)cc2)cc1
    i	0.09
FC(F)(F)c1nnc(-c2ccccc2)nc1N1CCOCC1
    i	0.16
Cc1cc(C)n(CC(=O)NC2CCCCC2)n1
    i	0.14
COc1ccc(CN(C2CCCC2)S(=O)(=O)c2ccc(-n3cnnn3)cc2)cc1OC
    i	0.53
COc1ccc(-c2ccc(SCC(=O)N3CCN(c4ccccc4)CC3)nn2)cc1
    i	-1.6
Cc1cc(NS(=O)(=O)c2ccc(Nc3nc(-c4sc(N)nc4C)cs3)cc2)no1
    i	-0.07
Cc1ccccc1NC(=O)Cn1cnc2c1c(=O)n(C)c(=O)n2C
    i	-0.47
COc1cc(C(=O)Nc2nc(-c3ccc(Cl)cc3)c(C)s2)ccc1OCC(=O)Nc1ccc(F)cc1
    i	1.61
Cc1[nH]nc(SCC(=O)Nc2cccc(O)c2)c1[N+](=O)[O-]
    i	0.86
O=C(O)CC1=C(O)C(=O)N(c2ccccc2)C1c1ccc(Cl)cc1 (configuration not stated)
    i	0.96
O=C(O)c1ccc(CNCc2cccc(Cl)c2)cc1
    i	-0.47
CC(C)CCn1c(=O)c2ccccc2c2ccccc2c1=O
    i	-1.42
O=C(Nc1ccc2oc(-c3ccccc3F)nc2c1)c1ccc2c(c1)OCCO2
    i	2.05
CC1CC1C(=O)OCc1cc(=O)n2cc(Br)ccc2n1 (configuration not stated)
    i	0.65
COc1cccc(CNS(=O)(=O)c2csc(C(N)=O)c2)c1
    i	0.21
O=S(=O)(Cc1ccccc1)c1nc2ccccc2n1Cc1ccccn1
    i	-1.95

Remaining list, next part.
mol,KCNQ2 block,KCNQ2 block baseline
O=C(Nc1cccc(NC(=O)c2ccc(Br)cc2)c1)c1ccccc1,i,3.89
Cc1ccc(C(=O)Nc2nnc(S(=O)(=O)N3CCC(C)CC3)s2)cc1,i,0.04
CCOc1ccc(N2CSC(=S)N(c3ccc(OCC)cc3)C2)cc1,i,0.13
O=C1CCCN1CCCNC(=S)Nc1ccc(Br)cc1Cl,i,-0.49
Cc1ccc(C)c(S(=O)(=O)N2CCN(CC(=O)N3CCc4ccccc4C3)CC2)c1,i,-0.65
CCOC(=O)c1ccc(NC(=O)NC2CC3CCC(C2)N3)cc1 (configuration not stated),i,5.63
CC(C)c1ccc(OCc2ccc(C(=O)N3CCN(c4ccccn4)CC3)cc2)cc1,-7.5*,0.71*
Cc1ccccc1-c1nnc(SCc2ccccc2)o1,i,1.97

Additional structures
mol,KCNQ2 block,KCNQ2 block baseline
COC(=O)C[C@H]1c2ccccc2S(=O)(=O)N1c1cccc(OC)c1,i,-1.41
O=C(N/N=C1\CCS(=O)(=O)c2ccc(F)cc21)c1ccc(O)cc1,i,0.54
CCOc1ccc(NC(=O)C2=C(C)C(=O)OC23CCC(C)CC3)cc1 (configuration not stated),i,-0.21
C(=C\c1ccco1)/C=N/n1cnnc1,i,1.24
Cc1ccc(-c2nn(-c3ccccc3)cc2NC(=O)c2ccccc2)cc1,-5.71*,-0.31*
CC(C)C[C@@H](C(=O)NCc1ccco1)N1C(=O)N2CCc3c([nH]c4ccccc34)[C@@]2(C)C1=O,i,-0.07
O=C(CSc1nnc(-c2ccc(Br)cc2)n1C1CCCCC1)N1CCCC1,i,-0.07
Nc1cc(=O)[nH]c(SCC(=O)Nc2ccc3c(c2)CCC3)n1,i,1.15

Next section:
mol,KCNQ2 block,KCNQ2 block baseline
Fc1ccc(-c2cc(C(F)(F)F)nc(-n3cccn3)n2)cc1,i,-0.38
CCCN(CC(=O)Nc1ccccc1C)C(=O)C1CCN(S(=O)(=O)c2cccc(C(F)(F)F)c2)CC1,i,1.26
CNC(=S)N1N=C(c2ccc(C)cc2)CC1c1ccc(Br)cc1 (configuration not stated),i,0.88
O=C(Cn1cncn1)N/N=C/c1ccccc1Cl,i,-1.84
CN1CCN(C(=S)c2cn(Cc3ccc(F)cc3)c3ccccc23)CC1,i,0.15
Cc1nn(-c2ccccc2)c(C)c1C(=O)OCC(=O)Nc1ccc2c(c1)OCO2,i,-0.28
Cc1cccc(OCc2nc(C#N)c(N3CC(C)CC(C)C3)o2)c1 (configuration not stated),i,-1.35
CO/N=C/C(c1ncc(C(F)(F)F)cc1Cl)S(=O)(=O)c1ccccc1 (configuration not stated),i,-1.03

The list continues:
mol,KCNQ2 block,KCNQ2 block baseline
Brc1ccccc1-c1nc(-c2ccccc2)no1,i,-0.21
COc1ccccc1OCC(=O)NCCC1=CCCCC1,i,-1.3
COc1ccc(CN2C(=O)NC3(CCCC3)C2=O)cc1F,i,0.37
CCOc1ccc(-n2c(=O)[nH]c3sc4c(c3c2=O)CCCC4)cc1,i,0.3
CCOc1cc2c(cc1OCC)C(c1ccccc1)N(c1ccc(C(=O)O)cc1)C(=O)C2 (configuration not stated),i,0.04
Cc1c(NC(=O)COC(=O)C2=COCCO2)cccc1[N+](=O)[O-],i,0.36
Cc1nc(CNS(=O)(=O)c2cccc(F)c2)cs1,i,3.32
Cc1cc(NC(=O)c2ccccc2F)ncc1NC(=O)c1cccs1,i,2.08

A second format for 3 compounds above:
Cc1nc(CNS(=O)(=O)c2cccc(F)c2)cs1
  KCNQ2 block = i
  KCNQ2 block baseline = 3.32

Brc1ccccc1-c1nc(-c2ccccc2)no1
  KCNQ2 block = i
  KCNQ2 block baseline = -0.21

Cc1c(NC(=O)COC(=O)C2=COCCO2)cccc1[N+](=O)[O-]
  KCNQ2 block = i
  KCNQ2 block baseline = 0.36

Following part
mol,KCNQ2 block,KCNQ2 block baseline
CN(C)NC(=S)Nc1ccc(S(=O)(=O)N2CCCCC2)cc1,i,-0.64
COc1ccc(/C=C2/CCc3ccccc3C2=O)cc1OC,i,0.51
CC(C)OC(=O)C1Cc2ccccc2CN1S(=O)(=O)c1cccs1 (configuration not stated),i,-0.49
CCOC(=O)C1CCCN(CC(=O)/C=C2/N(C)c3ccccc3C2(C)C)C1 (configuration not stated),i,0.01
COc1ccccc1C(=O)COC(=O)/C=C/c1ccccc1,i,-1.06
COc1ccccc1OCC(=O)Nc1cc(Cl)ccc1Oc1ccccc1,-10*,0.76*
Cc1cccc(N2CC(C(=O)OCc3ccc([N+](=O)[O-])cc3)CC2=O)c1 (configuration not stated),i,-0.01
Cc1cccc(NC(=O)[C@H](NC(=O)[C@@H]2Cc3ccccc3CN2)c2ccccc2)c1,i,-0.81

Grouped by structure, the compounds so far with a furan ring, fused or not
mol,KCNQ2 block,KCNQ2 block baseline
CCc1ccc(C(C)NC(=O)c2cc(C)oc2C)cc1 (configuration not stated),i,0.57
CCn1c(NCc2ccco2)nc2ccccc21,i,0.19
CC1CCCN(C(=O)CSc2nnc(-c3ccco3)n2C)C1 (configuration not stated),i,1.65
CC(=O)N(CCC(Cc1ccccc1)c1ccco1)Cc1ccco1 (configuration not stated),-6.04*,-1.5*
Cc1ccc(C(=O)NC(=S)Nc2ccc(N3CCN(C(=O)c4ccco4)CC3)cc2)cc1,i,0.84
Cc1ccc(-c2cc(C(=O)N3CC(C)OC(C)C3)c3ccccc3n2)o1 (configuration not stated),-10.6*,-0.02*
C(=C\c1ccco1)/C=N/n1cnnc1,i,1.24
CC(C)C[C@@H](C(=O)NCc1ccco1)N1C(=O)N2CCc3c([nH]c4ccccc34)[C@@]2(C)C1=O,i,-0.07

Following part
mol,KCNQ2 block,KCNQ2 block baseline
O=C(CNC(=O)c1cccs1)N/N=C/c1ccc(Cl)cc1,i,-0.65
COc1ccc(C(=O)OC(C)C(=O)Nc2cc(C(F)(F)F)ccc2Cl)c(OC)c1OC (configuration not stated),i,-1.06
Cc1ccc(S(=O)(=O)N(C)C)cc1NC(=S)Nc1cccc2ccccc12,i,-2.41
CCN=c1scc(C)n1/N=C/c1ccsc1,i,0.33
COc1ccc(-c2nc3c(c(SCC(=O)N4CCCC4)n2)COC(C)(C)C3)cc1,i,0.36
O=C(CCOc1ccccc1)Nc1ccnn1C1CCN(CCc2ccccc2)CC1,i,-0.27
Cc1ccccc1NC(=O)NC1(C(=O)N2CCC(O)CC2)CCCCC1,i,-0.06
CC(C)(C)[C@H]1CCC(=O)N([C@H](CSc2ccccc2)Cc2ccccc2)CC1,i,0.26

The listing continues:
mol,KCNQ2 block,KCNQ2 block baseline
CCC(CC)NC(=O)CC(c1ccccc1)c1ccccc1,i,-0.6
Cc1nn(C)c(C)c1CN(Cc1nc(-c2cc(F)ccc2F)oc1C)C1CC1,i,1.09
Cc1nn(C(C)(C)C)c(NC(=O)c2ccccc2)c1C#N,i,1.71
CCN(CC)CCN(C(=O)c1cc(Cl)sc1Cl)c1nc2cc3c(cc2s1)OCO3,i,0.67
Cc1cc(C(=O)Nc2ccccc2N2CCOCC2)ccc1[N+](=O)[O-],i,0.01
O=C(NCc1ccccc1)C12CN(Cc3ccccc3)CC1C(c1ccc([N+](=O)[O-])cc1)=NO2 (configuration not stated),i,0.23
N/C(=N\c1nc2c(c(=O)[nH]1)CCC2)Nc1cccc2ccccc12,i,1.29
CCOc1ccc(-c2c(C(=O)N/N=C/c3ccc(OC(C)C)cc3)nnn2-c2nonc2N)cc1,i,0.52
CNC(=S)N(CCc1c(C)[nH]c2ccc(C)cc12)Cc1ccco1,i,-0.78
O=S(=O)(c1ccc(Br)cc1)N1CCN(c2cc(-c3ccccc3)nc3ncnn23)CC1,i,-2.27
COc1ccc(Br)cc1C1CC(=O)C(C)C(c2cc(Br)ccc2OC)N1 (configuration not stated),i,-0.63
